Screening data: PubChem, National Center for Advancing Translational Sciences (NCATS)
VACV Venus inh = vaccinia inhibition (Venus reporter) | Vaccinia virus Venus reporter expression, fluorescence | Potency, µM (series often up to 36.5 µM), for inactives: top-dose activity change, negative = inhibition, most hits filed as inhibitors | 330,000 compounds, 0.46% hits; active means well fitted inhibition curve with a large enough effect; inconclusive means small, poorly fitted or top-dose-only effect; inactive means no such curve, though single readings can be large or run the other way; tested in A549 cells; also: nearly all actives have a fitted effect of over 30% in size; inactives centre near -10
VACV mCherry inh = vaccinia inhibition (mCherry reporter) | Vaccinia virus mCherry reporter infection, fluorescence; about a quarter of the inactives have no number | Potency, µM (highest dose often 36.5 µM), for inactives: at the highest dose activity change, negative = inhibition, actives largely listed as inhibitors | 310,000 compounds, 0.63% hits; active = well fitted inhibition curve with a large enough effect; inconclusive = small, poorly fitted or top-dose-only effect; inactive = no such curve, though single readings can be large or run the other way; tested in A549 cells; also: nearly all actives have a fitted effect of over 35% in size; inactives centre near -10
* = called active by the depositor; i = inactive; ? = inconclusive; nt = not tested or not shown; & = joins results of further samples; [ ] = dose if it differs, or a comment. % is scaled to controls: 0 for no effect and ±100 for the full control effect; potency is read from the fitted curve at half-maximal effect.

SMILES	VACV Venus inh	VACV mCherry inh
COC(=O)C1=C(c2cccc(OCc3ccccc3)c2)C[C@@H]2CC[C@H]1N2C(=O)NCCCc1ccccc1	?	-21%
Cc1cnc(C)c(-c2cccc3c2OC(CNC(=O)/C=C/c2ccncc2)C3)n1 (configuration not stated)	1%	-12%
CC(C)(C)c1nc2scc(-c3ccc(Cl)cc3)c2c(=O)o1	-13%	-15%
CCC(C(=O)Nc1ccncc1)c1ccccc1 (configuration not stated)	-15%	-6%
O=C(C1CCC1)N1CCc2cc(S(=O)(=O)NC3CCCc4ccccc43)ccc21 (configuration not stated)	-3%	i
Nc1nc(Nc2ccccc2F)nc(N2CCCC2)c1[N+](=O)[O-]	?	-19%
Cc1cc(C)nc(SCCN2CCCCC2)n1	4%	i
C=CC[C@H](CC(=O)OC(C)(C)C)C(=O)OC[C@@H]1CCCN1C(=O)[C@@H](CC=C)CC(=O)N[C@H](CO)Cc1ccccc1	-7%	i
COc1ccc(Br)cc1CN(C)C(=O)C1CC(=O)N(C2CCCC2)C1 (configuration not stated)	-12%	-17%
CC(Nc1cccc(F)c1)C(=O)Nc1ccc(S(N)(=O)=O)cc1 (configuration not stated)	-6%	-3%
COc1ccc(OC)c(NC(=O)CCN2CCN(Cc3ccccc3)CC2)c1	-2%	-16%
O=C(O)C(CCCCN1C(=O)c2ccccc2C1=O)N1C(=O)c2ccccc2C1=O (configuration not stated)	-12%	nt
COc1ccc(CCNc2nc(C)cc(=O)[nH]2)cc1OC	-5%	-2%
Cn1c(NC(=O)c2ccc(S(=O)(=O)N3CCCCC3)cc2)cc(=O)n(C)c1=O	-12%	-20%
COc1ccc(CNC(=O)C2CC(C)=C(C)CC2C(=O)O)cc1OC (configuration not stated)	-13%	i
Cc1ccc(-c2cc(N)n3nc(-c4ccc(C)cc4)cc3n2)cc1	-17%&-17%	-2%&-12%
CC(C)n1c(C(=O)OCC(=O)NCc2ccc3c(c2)OCO3)cc2occc21	-18%	-1%
Cc1[nH]c(=O)[nH]c(=O)c1S(=O)(=O)N1CCCC(C(=O)N2CCC(Cc3ccccc3)CC2)C1 (configuration not stated)	-8%	i
Cc1ccc(CNC(=O)C(=O)NCC2OCCN2S(=O)(=O)c2cccs2)cc1 (configuration not stated)	-22%	0%
O=C(O)c1ccn(COc2ccc(Br)cc2)n1	-7%	-3%
CCOC(=O)c1ccccc1NC(=O)c1c(C)oc2ncnc(N3CCOCC3)c12	-8%	-14%
C=CCC[C@@H](CCCCC)OC(=O)/C=C/[C@H](O)[C@@H](O)C[C@@H](O)CC=C	-25%	-30%
CCOc1cccc2sc(N(CCN(C)C)C(=O)/C=C/c3cccs3)nc12	-29%	-27%
COc1cc(NC(=O)CC(C)S(=O)(=O)c2cc3c4c(c2)CCN4C(=O)CC3)cc(OC)c1 (configuration not stated)	3%	-8%
O=C(O)C1=CCNCC1	-17%&0%&-3%	-14%&9%
COc1ccc(C(=O)Nc2ccccc2C(=O)Nc2cc(C)ccn2)cc1	?	-25%
CCc1c(C)sc2c1CCN(Cc1ccccc1F)C2c1ccccc1 (configuration not stated)	-15%	-17%
COc1ccc(NS(=O)(=O)c2cccc(C(=O)NNC(=O)c3ccccc3OC)c2)cc1	-20%	-3%
N#Cc1c(-c2ccco2)nc(SCc2ccc(F)cc2)[nH]c1=O	-7%	-9%
COc1cc(C(=O)NCC(=O)N2CC=C(c3ccccc3)CC2)cc(OC)c1OC	-26%	-7%
O=C(Nc1ccccc1)NC1(C(=O)NCc2cccs2)CCCCC1	-3%	-4%
CCOc1cccc2sc(=NC(=O)c3ccco3)n(CC(=O)OC)c12	-8%	i
O=C(C1=C(O)C(=O)N(Cc2ccco2)C1c1cccs1)c1cccs1 (configuration not stated)	-6%	-13%
CC1(C(=O)NS(=O)(=O)c2cccc(Cl)c2)CCN1C(=O)CC1CCCCC1 (configuration not stated)	-13%	-9%
COc1ccc(C(C)C)cc1-c1cncc(NC(C)=O)n1	-11%	18%
COc1ccccc1Cn1cc(C(=O)c2ccc(C)cc2)c(=O)c2cc(F)cc(F)c21	-20%	-23%
CC(=O)N1N=C(c2ccc(Br)cc2)OC12CCCC2	-2%	-11%
O=c1c(-c2ccnn2-c2cccc(Cl)c2)cnc2n1CCS2	-18%	i
O=C(NCc1ccc2c(c1)OCO2)c1sccc1Br	-5%	-21%
COCC(=O)Nc1nnc(SCC(=O)N2CCCCC2)s1	0%	i

Part of the list above in order of heavy-atom count, ascending:
SMILES	VACV Venus inh	VACV mCherry inh
O=C(O)C1=CCNCC1	-17%&0%&-3%	-14%&9%
O=C(NCc1ccc2c(c1)OCO2)c1sccc1Br	-5%	-21%
COc1ccc(C(C)C)cc1-c1cncc(NC(C)=O)n1	-11%	18%
O=c1c(-c2ccnn2-c2cccc(Cl)c2)cnc2n1CCS2	-18%	i
N#Cc1c(-c2ccco2)nc(SCc2ccc(F)cc2)[nH]c1=O	-7%	-9%
O=C(C1=C(O)C(=O)N(Cc2ccco2)C1c1cccs1)c1cccs1 (configuration not stated)	-6%	-13%
CCc1c(C)sc2c1CCN(Cc1ccccc1F)C2c1ccccc1 (configuration not stated)	-15%	-17%
CC1(C(=O)NS(=O)(=O)c2cccc(Cl)c2)CCN1C(=O)CC1CCCCC1 (configuration not stated)	-13%	-9%
CCOC(=O)c1ccccc1NC(=O)c1c(C)oc2ncnc(N3CCOCC3)c12	-8%	-14%
COc1ccccc1Cn1cc(C(=O)c2ccc(C)cc2)c(=O)c2cc(F)cc(F)c21	-20%	-23%
COc1ccc(NS(=O)(=O)c2cccc(C(=O)NNC(=O)c3ccccc3OC)c2)cc1	-20%	-3%

Later entries
SMILES	VACV Venus inh	VACV mCherry inh
O=C(NC(=O)c1ccccc1F)Nc1nc(-c2cccs2)cc(C(F)(F)F)n1	-5%	-9%
OC1(C#CCCN2CCCCC2)c2ccccc2-c2ccccc21	-5%	0%
Nn1c(SCc2ccccc2F)nnc1-c1ccccn1	-22%	-1%
COc1c(O)c2c(=O)cc(OC)c3c4c(OC)cc(=O)c5c(O)c(OC)c(C[C@@H](C)OC(=O)c6ccccc6)c(c(c1C[C@@H](C)OC(=O)Oc1ccc(O)cc1)c23)c54	?	-24%[2.01 µM]
Cc1cc(C)cc(NC(=O)CSc2oc(-c3ccccc3)nc2S(=O)(=O)c2ccc(Cl)cc2)c1	-6%	-7%
CN(c1ccccc1)S(=O)(=O)c1ccc(Cl)c(C(=O)OCC(=O)NC2CCS(=O)(=O)C2)c1 (configuration not stated)	-3%	-10%
N#CC1=C2SCN(c3ccc(F)cc3)CN2C(=O)CC1c1cccc(F)c1 (configuration not stated)	0%	12%
COc1ccc([C@H]2CC(=O)C=C(c3ccc4c(c3)OCCO4)C2)cc1	-16%	i
CCN1CCN(C(c2ccc(SC)cc2)c2c(O)cc(C)n(CCOC)c2=O)CC1 (configuration not stated)	-8%	-15%
CCCN1C(=O)c2ccccc2NC1c1ccc(OC)cc1O (configuration not stated)	-14%	nt
CCCCCn1c(=O)[nH]c2cc(C(=O)N3CCN(Cc4ccc5c(c4)OCO5)CC3)ccc2c1=O	?	-15%
Cc1cc(C(=O)N2CCN(Cc3ccccc3)CC2)on1	-6%	11%
O=C(NCc1ccco1)c1ccc(Cl)s1	5%	4%
CCC(C)[C@H](NC(=O)N1CCC(C)CC1)C(=O)OC (some centres not stated)	0%	i
CC(CCc1ccccc1)NC(=O)CSc1cccc[n+]1[O-] (configuration not stated)	10%	-2%
CC(C)c1ccc(Nc2c([N+](=O)[O-])c(=O)n(C)c3ccccc23)cc1	-25%	-20%
CCn1c(CNC(=O)c2ccc(OC)cc2)nnc1SCC(=O)Nc1cc(C)ccc1C	-7%	0%
COc1cccc(NC(=O)c2ccccc2OCc2c(C)noc2C)c1	-19%	-15%
O=C(OCc1cn(-c2ccc(Cl)cc2)nn1)c1ccccc1	-20%	-9%
COC(=O)C1=C(c2cccc(OC)c2OC)C[C@@H]2CC[C@H]1N2C(=O)N1CCOCC1	-5%	-12%
Fc1ccccc1CSc1nnc(-c2cnccn2)n1Cc1ccco1	2%	-21%
Cc1c(C(=O)N2CCC(C)CC2)c(S(=O)(=O)N2CCN(c3ccc(Cl)cc3)CC2)c(C)n1C	-13%	-13%
CCNC(=S)N/N=C/c1ccc(OCc2ccc(C(=O)OC)cc2)cc1	2%	-17%
CC[C@H](CO)Oc1cc(NCc2ccc(Cl)c(Cl)c2)c2ncn(C(C)C)c2c1	-23%	-14%
CC(C(=O)Nc1ccc(C(N)=O)cc1)N1C(=O)c2ccccc2S1(=O)=O (configuration not stated)	-11%	-9%
CCOC(=O)C1=CCN(S(=O)(=O)c2ccccc2Br)C1c1ccc(Cl)c(Cl)c1 (configuration not stated)	-8%	6%
O=S(=O)(c1cccs1)N1CCN(C/C=C/c2ccccc2)CC1	-21%	nt
C=CCn1c(SCc2ccc(F)cc2)nnc1-c1sc2nc(C)cc(C)c2c1N	-18%	i
Clc1ccc(-c2cc(CSc3ccccc3)on2)cc1	-4%	nt
NC(=O)C1CCN(c2ccc(S(=O)(=O)N3CCC(Cc4ccccc4)CC3)cn2)CC1	-6%	-6%
Cn1cc(CN2CCCCC2CO)c(-c2ccc(Oc3ccccc3)cc2)n1 (configuration not stated)	-7%	-14%
CCOC(=O)c1cccc(NC(=O)Cn2c(CC(=O)NC)nc3ccccc32)c1	-8%	i
CC1=CN2C(c3cccc([N+](=O)[O-])c3)=NON(c3ccc(C)cn3)C2C=C1 (configuration not stated)	3%	14%
O=C(c1ccc(CNS(=O)(=O)c2ccc(Br)cc2)cc1)N1CCC2(CC1)OCCO2	-8%	-15%
CN(C)c1ccc(C(=O)C(=O)N2CCN(c3ccccc3)CC2)cc1	-18%	?
CCCCNC(=O)C1CCN(S(=O)(=O)c2cnc[nH]2)CC1	?	?
COc1cccc(NC(=O)C(=O)NCCc2csc(-c3ccc(C(F)(F)F)cc3)n2)c1	-12%	-12%
O=C1c2[nH]nc(-c3ccccc3O)c2C(c2cccc(OCc3ccccc3)c2)N1CCCO (configuration not stated)	-21%	-20%
CCCCC(=O)N(C)c1c(CC)nc2c(OCc3ccc(S(C)(=O)=O)cc3)cccn12	-9%	-16%
NS(=O)(=O)c1ccc2nc(-c3ccccc3)c(-c3ccccc3)nc2c1	-6%	-11%

Fetched by compound from the list above, 3 records:
SMILES	VACV Venus inh	VACV mCherry inh
CCOC(=O)c1cccc(NC(=O)Cn2c(CC(=O)NC)nc3ccccc32)c1	-8%	i
Fc1ccccc1CSc1nnc(-c2cnccn2)n1Cc1ccco1	2%	-21%
CCCCC(=O)N(C)c1c(CC)nc2c(OCc3ccc(S(C)(=O)=O)cc3)cccn12	-9%	-16%

More compounds.
SMILES	VACV Venus inh	VACV mCherry inh
CCOc1ccc(NC(=O)CN2C(=O)NC(C)(c3ccc(OC(F)F)cc3)C2=O)cc1 (configuration not stated)	-11%	-20%
COC(=O)CSc1nccc(C)n1	3%	i
COc1cc(CNCCSc2nnnn2C)ccc1OCc1ccc(F)cc1	-9%	0%
CC(=O)c1cccc(NC(=O)c2ccc(-c3ccccc3[N+](=O)[O-])o2)c1	-17%	-25%
CCC(Oc1cccc(C)c1)C(=O)Nc1ccccc1C(=O)N1CCOCC1 (configuration not stated)	-12%	-4%
CCOC(=O)c1c(NC(=O)C2CC2)sc2c1CC(C)(C)OC2	7%	i
NC(=O)c1ccc(-c2nnc(Nc3ccc(S(N)(=O)=O)cc3)c3ccccc23)cc1	-16%	-17%
Cc1ccsc1C(=O)NNC(=O)C1C2C=CC(C2)C1C(=O)O (configuration not stated)	-21%	-9%
CC1=C(C(=O)N2CCCCC2)C(c2ccc(Cl)cc2)n2c(nc3ccccc32)N1 (configuration not stated)	2%	-10%
O=C(Nc1sc2c(c1C(=O)O)CCC2)c1cccc(Cl)c1	-19%	-1%
Cc1cc(C)c(-c2c(O)c3cccnc3n(C)c2=O)c(C)c1	-9%[7.34 µM]	i[7.34 µM]
CC(=O)c1ccc(N(C)C)c2c(N(C)C)cccc12	?	-17%
C=CCNC(=O)/C(=C\C=C\c1ccccc1)NC(=O)c1ccccc1Cl	-3%	-3%
Cc1nc(C)n(CC(=O)N2CCOc3ccc(CN4CCN(C)C[C@@H]4c4ccccc4)cc3C2)n1	-10%	-4%
Cc1c(O)ccc2c1OC(C)(C)CC2	-11%	-21%
Cc1ccc(S(=O)(=O)Nc2ccc3c(c2)C(=O)N([C@H](C)CO)C[C@H](C)[C@@H](CN(C)C(=O)Nc2ccc4c(c2)OCO4)O3)cc1	-3%	i
O=C(COc1ccccc1C(=O)Nc1ccccc1)Nc1ccc(-c2ccccc2)cc1	-25%	-24%
CCN(CC)CC(=O)Nc1ccc2c(c1)Nc1ccccc1CC2	?	?
CCOC(=O)C1CCCN(C(=O)c2ccc3c(=O)n(CCOC)c(=S)[nH]c3c2)C1 (configuration not stated)	-28%	-11%
O=S(=O)(c1ccccc1)c1ncc(C(F)(F)F)cc1Cl	-10%	-8%
CC(C)CN1CC(C)C(=O)NC1=S (configuration not stated)	-1%	i
O=C(NCCCN1CCOCC1)c1ccc2c(c1)N(Cc1ccccc1)C(=O)c1ccccc1S2	-3%	-5%
